# Assay outcomes deposited in PubChem by Fisher Drug Discovery Resource Center.
# NPYLR7 agonist: activates Aedes aegypti NPYLR7 receptor | HEK293T NPYLR7/Galpha15, GCaMP6s calcium fluorescence | activation, % at 10 µM | actives 0.15% (n = 270,000) | AID 1259423; in the data active = activation above about 40%;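 note: 0% = vehicle and 100% = reference agonist at the receptor; some compounds past the cut are filed as inactive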
# NPYLR7 agonist max-min: also measured in NPYLR7 agonist; calls as there; activation, %; measured here: Max-Min RFU normalised activation; some inactives read as strong as hits;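 span of the calcium signal over five minutes; 0% = vehicle and 100% = native peptide agonist; compound fluorescence can raise it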
# Numbers without * were called inactive; & = joins results of further samples. These rows are one share of the data; rates above refer to the full screens.
item	structure	NPYLR7 agonist	NPYLR7 agonist max-min
1	Nc1cc(S(=O)(=O)N2CCOCC2)ccc1O	6	55
2	Cc1ccc(C(=O)NC2C(=O)Nc3cccc(C)c32)cc1NC(=O)C1CCCC1 (centres undefined)	5	-2
3	O=C(NC[C@H]1C[C@H]2C=C[C@H]1C21CC1)c1ccc(OC2CCN(Cc3ccccn3)CC2)cc1	21	11
4	COCCN(Cc1nccn1Cc1cccc(F)c1)C(=O)c1cccc(F)c1	5	10
5	COCCNC(=O)c1cc(NC(=O)Nc2ccc(SC)cc2)ccc1N1CCC(C)CC1	35	31
6	CCOc1ccccc1-c1nccn1Cc1cnc2c(c1)CCC2	3	-5
7	O=C(NCCc1c[nH]c2ccccc12)C1CCCN(c2nc3c(-c4ccccc4)csc3c(=O)[nH]2)C1 (centres undefined)	-6	-9
8	O=C(NC(Cn1ccnc1)c1ccccc1)c1cnn2c1CCCC2 (centres undefined)	4	3
9	c1ccc(-c2ccc(CNC3CCN(C4CC4)C3)cc2)cc1 (centres undefined)	-1	-2
10	Cc1csc(SCc2cc(=O)c(OC(=O)c3ccc([N+](=O)[O-])cc3)co2)n1	-2	-6
11	Brc1c(CNCCn2cccn2)nc2sccn12	4	2
12	Cc1cc(C)cc(C(=O)NCC(=O)N2CCN(c3ncccn3)CC2)c1	6	5
13	Cc1c(C(=O)N2CCN(C(=O)c3cccc(C(F)(F)F)c3)CC2)cc(-c2ccccc2)n1-c1ccccc1Cl	-11	-3
14	CCN(CC1CCCO1)C(=O)c1ccc(-n2cc(NC(=O)c3ccoc3)cn2)cc1 (centres undefined)	1	-3
15	N#CC1(c2ccccc2)CCN(C(=O)C2CCCCC2C(=O)NCCNc2cccc3ccccc23)CC1 (centres undefined)	6	0
16	CCN(CC)C(=S)SC(C)c1nnc(C)o1 (centres undefined)	-1	-11

# From entry 9 as far as 13, copied from above:
item	structure	NPYLR7 agonist	NPYLR7 agonist max-min
9	c1ccc(-c2ccc(CNC3CCN(C4CC4)C3)cc2)cc1 (centres undefined)	-1	-2
10	Cc1csc(SCc2cc(=O)c(OC(=O)c3ccc([N+](=O)[O-])cc3)co2)n1	-2	-6
11	Brc1c(CNCCn2cccn2)nc2sccn12	4	2
12	Cc1cc(C)cc(C(=O)NCC(=O)N2CCN(c3ncccn3)CC2)c1	6	5
13	Cc1c(C(=O)N2CCN(C(=O)c3cccc(C(F)(F)F)c3)CC2)cc(-c2ccccc2)n1-c1ccccc1Cl	-11	-3

# Next section.
item	structure	NPYLR7 agonist	NPYLR7 agonist max-min
17	Cc1cc(-n2c(C)cc(C(=O)COC(=O)c3sccc3C)c2C)no1	-3	-4
18	CSc1ccc(CN(Cc2ccco2)C(=O)c2cccc(C(F)(F)F)c2)cc1	-7	-12
19	CC(=O)Nc1ccccc1OCc1ccccc1F	4	2
20	COC(=O)CCCC(=O)N1CCc2c([nH]c3ccc(OC)cc23)C1c1ccc(-c2ccccc2C(F)(F)F)o1 (centres undefined)	-1	-6
21	Cc1cc(N2CCCN(Cc3cnc(-c4ccccn4)nc3)CC2)ccn1	2	-2
22	COCCOC(=O)C1=C(C)N(C)C(=S)NC1c1cccc(NC(=O)COc2ccc(Cl)cc2)c1 (centres undefined)	-5	-2
23	CC(=C(O)c1ccccc1)S(=O)(=O)c1ccc(C)cc1	-5	-7
24	COc1ccccc1-n1ccc2c(cnc3nc(SC)nn32)c1=O	3	4
25	CC(Sc1nc2c3ccccc3ncn2n1)C(=O)Nc1ccccc1 (centres undefined)	5	5
26	Cc1cc2cc(CNC(=O)C3CCCCC3)ccc2n1C	4	0
27	CN(CC1CC1)S(=O)(=O)Nc1ccc(Br)cc1O	4	6
28	COc1ccc(-n2ccnc(SCC(=O)NCCC(C)C)c2=O)cc1Cl	1	1
29	Cc1n[nH]c(=O)c(C(=O)NCCc2ccc(OCC(C)C)cc2)c1C	5	6
30	Cc1ccc(C)c(OCCNC(=O)C2CCOC2)c1 (centres undefined)	7	1
31	CCN(CC)C(=O)C(C1CCCC1)N1CCN(C(=O)CCc2ccccc2)CC1 (centres undefined)	-6	-4
32	CCC(O)CN(Cc1ccccc1)Cc1ccc(C)s1 (centres undefined)	-1	11
33	N#Cc1ccccc1OCC(O)CNCCNC(=O)Nc1ccccc1 (centres undefined)	-20	-25
34	Cc1cnc(C(=O)N2CCN(C(=O)c3csc(=Nc4ccccn4)n3Cc3ccccc3)CC2)cn1	5	7
35	CC(C)CCNC(=O)Cn1c2ccccc2c(=O)c2ccccc21	1	2
36	CCc1[nH]n(-c2cccc(Cl)c2)c(=O)c1C1=C([n+]2ccc(C)c(C)c2)C(=O)N(CC(C)C)C1=O	-4	5
37	COC(=O)[C@]1(C)N[C@H](c2ccc(-c3ccncc3)cc2)[C@@H]2C(=O)N(C)C(=O)[C@@H]21	0	0
38	O=C(CSc1nc2c(cnn2CCO)c(=O)[nH]1)Nc1ccccc1C(F)(F)F	4	1
39	CCCC1CN(CCOC)C(=O)c2cccnc2O1 (centres undefined)	1	17
40	CCNC(=O)NC(=O)C(C)Sc1nc(C(C)C)n(-c2ccccc2)n1 (centres undefined)	4	1
41	CC(C)CC(=O)NCC1(NC(=O)CC(C)C)CCOCC1	9	5
42	CN(Cc1nc(-c2ccccc2)no1)Cc1ccnc2ccccc12	4	2
43	CCC(C(=O)N1CCc2cc(OC)c(OC)cc2C1C(C)C)c1ccccc1 (centres undefined)	-5	4
44	O=C(Nc1ccc(C2SCC(=O)N2c2ccc(C(F)(F)F)cc2)cc1)C1CC1 (centres undefined)	27	31
45	O=C1CC(c2ccccc2)Sc2nc(C34CC5CC(CC(C5)C3)C4)nn21 (centres undefined)	1	7
46	COCC(=O)N(Cc1csc(COc2cc(Cl)ccc2Cl)n1)C(C)C	0	-13
47	CC1C(=O)N(c2ccc(Cl)cc2)CCN1C(=O)NC(C)(C)C (centres undefined)	-1	2
48	C=CCN(Cc1csc(COc2ccc(OC)cc2)n1)C(=O)c1ccco1	22	25

# A different layout for four compounds above:
42) CN(Cc1nc(-c2ccccc2)no1)Cc1ccnc2ccccc12
  NPYLR7 agonist = 4	NPYLR7 agonist max-min = 2

43) CCC(C(=O)N1CCc2cc(OC)c(OC)cc2C1C(C)C)c1ccccc1 (centres undefined)
  NPYLR7 agonist = -5	NPYLR7 agonist max-min = 4

44) O=C(Nc1ccc(C2SCC(=O)N2c2ccc(C(F)(F)F)cc2)cc1)C1CC1 (centres undefined)
  NPYLR7 agonist = 27	NPYLR7 agonist max-min = 31

45) O=C1CC(c2ccccc2)Sc2nc(C34CC5CC(CC(C5)C3)C4)nn21 (centres undefined)
  NPYLR7 agonist = 1	NPYLR7 agonist max-min = 7

# Continued:
item	structure	NPYLR7 agonist	NPYLR7 agonist max-min
49	CCc1nccc(CN2CCCC(CNC(=O)c3occc3C)C2)n1 (centres undefined)	0	1
50	CSc1ccccc1NC(=O)COC(=O)c1cccnc1N	-2	-2
51	O=C(C1CCN(C2CCN(Cc3nc4ccccc4s3)CC2)CC1)N1CCCC1	9	1
52	CCSc1ccccc1C(=O)Nc1ncc(C)s1	-1	10
53	COc1ccc(Nc2ncccc2C(=O)NC(c2ccc(F)cc2)c2ccc(SCc3ccccc3)cc2)cc1 (centres undefined)	-2	-11
54	N#CC1C(=N)C(C#N)(C#N)C(c2ccccc2)C2CNCC=C12 (centres undefined)	12	7
55	CC(CCc1ccccc1)NC(=O)c1csc(CSc2nnc(-c3ccco3)n2-c2ccccc2Cl)n1 (centres undefined)	0	10
56	CCCc1noc(CCC(=O)NCCc2csc(C)n2)n1	0	0
57	O=S(=O)(NCC1CCN(c2ncccn2)CC1)c1ccc(OC(F)(F)F)cc1	-8	-9
58	CCc1[nH]n(-c2ccc(Cl)c(Cl)c2)c(=O)c1C1=C([n+]2cccc(C)c2)C(=O)N(CC2CCCO2)C1=O (centres undefined)	1	7
59	NC1CC2CC3CC(C2)C1C3 (centres undefined)	4	11
60	Cc1ccccc1NCN1C(=O)C2CC=CCC2C1=O (centres undefined)	4	5
61	O=C(c1ccc(-c2ccccc2)cc1)C1CCCN(Cc2cc(=O)[nH]c(=O)[nH]2)C1 (centres undefined)	18	14
62	O=C(NC1CCC(n2cnnc2)CC1)C1=Cc2ccccc2OC=C1 (centres undefined)	30	16
63	Cc1ccc(C)c(C2CC(c3ccc(F)cc3)=NN2C(=O)CN2CCc3ccccc3C2)c1 (centres undefined)	0	7
64	CCOC(=O)C(=O)N1CCN(c2nccc(-c3ccc(C(C)(C)C)cc3)n2)CC1	6	2
65	CCCCS(=O)(=O)N1CCN(c2nc(Cc3ccccc3)nc3c2cnn3-c2cccc(Cl)c2)CC1	17	15
66	Clc1cccc(C2c3cccn3CCCN2Cc2cccc(Oc3ccccc3)c2)c1 (centres undefined)	-6	-1
67	CCCn1cc(CNC2CC(=O)N(C3CCCCCC3)C2)c(C)n1 (centres undefined)	3	-2
68	O=C(C[n+]1ccccc1)NN=Cc1cccc(Oc2ccccc2)c1	-2	-5
69	CCCCNC(=S)NN=C1CCCC1	4	3
70	O=C(c1ccc(-n2cncn2)c2ccoc12)N1CCOCC1	-15	-15
71	COCCN(C(=O)C1CCC(=O)N(CCCN2CCCC2=O)C1)C(C)C (centres undefined)	9	4
72	COC(=O)c1ccc(COC(CN2CCN(C(=O)c3cc(C)n(C)n3)CC2)c2ccc(Cl)cc2)cc1 (centres undefined)	3	-1
73	Cc1ccc(C(=O)NCCc2nnc3ccc(SCC(=O)Nc4ccc(C)c(Cl)c4)nn23)cc1	-2	-11
74	COc1cc(=O)n(-c2ccc(C)cc2)nc1C(=O)Nc1nc2ccccc2s1	-7	-4
75	CNC(=S)Nc1ccc(Cl)c([N+](=O)[O-])c1	2	23
76	CCNC(=O)C(C)NC(=O)c1ccc2cccnc2c1O (centres undefined)	9	7
77	CCc1ccccc1NC(=O)N1CCN(c2cc(-n3cccn3)ncn2)CC1	-9	-13
78	CC(C)(C)NS(=O)(=O)c1ccc(Br)c(C(=O)OC2CCOC2)c1 (centres undefined)	0	1
79	CC1CN(c2cc(Cl)nc(SCC(=O)NCCN3CCOCC3)n2)CCN1C(=O)c1ccc(Cl)cc1 (centres undefined)	26	26
80	O=C(C1CCC(O)CC1)N1CCC(C2CCN(Cc3cccc(F)c3F)CC2)C1 (centres undefined)	1	-5
81	Cc1ccc(Cl)cc1-n1c(SCc2ccc(F)cc2)nnc1C(Cc1ccccc1)NC(=O)NC1CCCCC1 (centres undefined)	16	16
82	CC(C(=O)Nc1cc(-c2cccs2)ncn1)n1cccn1 (centres undefined)	1	-1
83	COc1ccc(CCOC(=O)[C@@H]2CCCN2C(=O)CO[C@H]2C[C@@H](C)CC[C@@H]2C(C)C)cc1OC	2	-3
84	O=C(CSc1nnc(-c2ccccc2F)n1-c1ccccc1)OCc1ccccc1	14	24
85	Fc1ccc(CN2CCCn3cccc3C2c2ccccc2C(F)(F)F)cc1Cl (centres undefined)	7	19
86	CCOC(=O)C1(CCCc2ccccc2)CCN(C(=O)c2ccnc3ccc(C)cc23)CC1	12	11
87	CCn1cnnc1C1CCCN(C(=O)CSc2ccccc2C)C1 (centres undefined)	1	-1
88	O=C(CC1CSc2nc3[nH]ncc3c(=O)n21)Nc1ccc(F)c(F)c1 (centres undefined)	0	19
89	Cc1c(C)n2c3c(=O)n(CCCO)c(=O)n(C)c3nc2n1CCc1ccccc1	1	6
90	Cc1c(C(=O)NCCc2ccccn2)cc(-c2ccc(Cl)cc2)n1-c1ccccc1	-3	-1
91	O=C(CCn1cnc2ccccc21)NC1CCCCC1	-1	-1
92	COC(=O)c1ccccc1NC(=O)N1CCCC(C(=O)c2cccc(Cl)c2)C1 (centres undefined)	21	13
93	O=C(Nc1ccc(-c2onc3c2CCCC3)cc1)c1csc(-c2ccc3c(c2)CCO3)n1	23	25
94	Cc1ccccc1CCC(=O)N1CCC(n2c(C)nc3cc(C(F)(F)F)ccc32)CC1	3	-1
95	O=S(=O)(c1cc(Br)ccc1Br)N1CCCc2ccccc21	-4	-6
96	Cc1ccc(-c2nnc3c4ccccc4c(C)nn23)cc1S(=O)(=O)NC1CCCCC1	-4	-5
97	CC(=O)CN1C(=O)C(=O)c2cc(Br)ccc21	-1	-2
98	COCCN(Cc1ccc(OC)cc1)c1c(C)nc2ccc(C(=O)N3CCN(C)CC3)cn12	-3	-10
99	COc1ccc(/C=C2\SC(=S)N(CC(=O)NNC(=O)c3ccncc3)C2=O)cc1	-5	-4
100	CCCCC(=O)N1CCc2c([nH]c3ccc(OC)cc23)C1c1ccc(OCc2ccccc2)cc1 (centres undefined)	-5	-9
101	CCOC(=O)C1(CC2CC2)CCN(C(=O)Cn2cnnn2)CC1	12	15
102	COc1ccc2[nH]cc(CC(=O)N3CCCC(CC(C)C)C3)c2c1 (centres undefined)	7	3
103	O=C(c1ccc(Cl)cc1)N(Cc1nccn1Cc1ccccc1C(F)(F)F)CC1CCCO1 (centres undefined)	2	10
104	Cc1cnc2c(c1SCC(=O)Nc1ccccc1C(F)(F)F)c(=O)n(C)c(=O)n2C	8	13

# Some of these compounds in order of number of heavy atoms, highest first:
item	structure	NPYLR7 agonist	NPYLR7 agonist max-min
99	COc1ccc(/C=C2\SC(=S)N(CC(=O)NNC(=O)c3ccncc3)C2=O)cc1	-5	-4
102	COc1ccc2[nH]cc(CC(=O)N3CCCC(CC(C)C)C3)c2c1 (centres undefined)	7	3
101	CCOC(=O)C1(CC2CC2)CCN(C(=O)Cn2cnnn2)CC1	12	15

# (more compounds)
item	structure	NPYLR7 agonist	NPYLR7 agonist max-min
105	Cc1cc2nc(N(Cc3cccnc3)C(=O)c3ccc([N+](=O)[O-])s3)sc2cc1C	-2	-4
106	CN(Cc1ccco1)c1nnnn1-c1ccccc1	0	0
107	NCc1ccccc1Cn1ccnc1	2&2	3&2
108	COc1cccc(Cn2cccc2CN(Cc2ccccc2)C(=O)CN(CC(C)C)S(=O)(=O)c2c(C)cc(C)cc2C)c1	-4	11
109	CCCNC(=O)c1cc(-c2ccc(F)cc2)n(-c2cccc(C)c2)c1C	33	31
110	Cc1nc(SCc2ccc(C(=O)O)cc2)nc(N2CCN(c3ccccc3Cl)CC2)c1C	9	14
111	CCn1c(C2CCNCC2)nn(CC23CC4CC(CC(C4)C2)C3)c1=O	-2	-6
112	Nc1nnnn1/N=C\c1ccc(O)c(O)c1	-7	-13
